Source: PubChem BioAssay (Center for Chemical Genomics, University of Michigan)
HIV TAR-Tat: HIV-1 TAR-Tat binding disruption; hit rate 0.6% among 100,000; HIV-1 TAR RNA, Tat peptide displacement FRET; stronger effect = higher value; z-score (no concentration beside the values);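 further: score is relative to mean and SD of negative controls; some compounds called inactive have numbers as strong as hits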
CDC25B-CDK2 inh: human CDC25B-CDK2/CyclinA binding inhibition | HTRF CDC25B-CDK2/CyclinA binding, anti-His/anti-Flag; stronger effect = higher value | z-score (no concentration beside the values) | hit rate 0.72% among 94,000 | AID 1259370;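 further: score is relative to mean and SD of negative controls; strong numbers were not always called active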
The depositor's hits bear a star; x = no result given.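 How the source made its calls: active means z-score from 3 up in half or more of its runs; inactive means the rest.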

A first look, 2 compounds:
SMILES	HIV TAR-Tat	CDC25B-CDK2 inh
Cc1ccc2[nH]c(C)c(CN3CC(C)OC(C)C3)c(=O)c2c1 (configuration not stated)	-1	-3.6
COc1cc2ncc(S(=O)(=O)c3ccc(Cl)cc3)c(N3CCCCC3)c2cc1OC	0.41	2.3

The listing, from the start:
SMILES	HIV TAR-Tat	CDC25B-CDK2 inh
Cc1ccc2[nH]c(C)c(CN3CC(C)OC(C)C3)c(=O)c2c1 (configuration not stated)	-1	-3.6
COc1cc2ncc(S(=O)(=O)c3ccc(Cl)cc3)c(N3CCCCC3)c2cc1OC	0.41	2.3
CCCNC(=O)c1nn2c(c1Cl)NC(c1cccs1)CC2C(F)(F)F (configuration not stated)	0.69	-1.9
O=C(C1CCN(c2nc3cccnc3s2)CC1)N1CCN(c2ccc(F)cc2)CC1	0.5	x
Cc1cc(C2CCCN2C(=O)c2ccc3c(c2)OCO3)on1 (configuration not stated)	1.2	x
CCn1c(C)nc2cc(S(=O)(=O)NC)ccc21	0.95	-1
OCc1ccc(-c2cccc(Cl)c2)o1	-2.2	-0.23
C=CCc1ccccc1OC(C)c1nc2ccccc2[nH]1 (configuration not stated)	2	0.23
COc1ccccc1-c1nnc2sc(-c3ccc4c(c3)OCCO4)nn12	1	-0.86
O=C(C1CC1)N1CCCc2cc(NS(=O)(=O)c3ccc(Br)cc3)ccc21	0.72	x
Cn1cnc(S(=O)(=O)N2CCCC(C(=O)Nc3ccc4c(c3)OCCO4)C2)c1 (configuration not stated)	1.2	x
CCOc1ccc2nc3n(c2c1)CC(O)CS3 (configuration not stated)	x	0.56
Cc1ccc(C(=O)NC(NC(=S)Nc2cc(C)ccc2C)C(Cl)(Cl)Cl)cc1 (configuration not stated)	x	-1.3
CCOC(=O)c1noc2ncnc(N(Cc3ccco3)C3CCCCC3)c12	0.48	x
COc1cc(CNCCSc2nnnn2C)cc(Cl)c1OCc1ccc(Cl)cc1	0.17	-0.99
COCCn1c2c(c(=O)[nH]c1=O)C(c1ccccc1Cl)C1=C(N2)c2ccccc2C1=O (configuration not stated)	0.32	-3.6
COc1ccc(OC)c(NS(=O)(=O)c2ccc(-c3coc(C)n3)cc2)c1	1	x
O=c1[nH]nc(Cc2ccccc2)c2ccccc12	1.2	-1.3
O=S(=O)(c1ccc(F)cc1)N1CCN(S(=O)(=O)c2ccc3ccccc3c2)CC1	x	-0.96
CCOc1ccc2[nH]cc(S(=O)(=O)c3ccc(OC)cc3)c(=O)c2c1	1.5	-1.5
CCc1ccc(-c2cn3c(n2)sc2cc(C(=O)OC)ccc23)cc1	0.71	-0.86
CCOC(=O)c1cc(-c2ccc(S(=O)(=O)NCCCN3CCCC(C)C3)s2)on1 (configuration not stated)	-6.4	x
Cc1c(N2C(=O)CSC2c2ccco2)c(=O)n(-c2ccccc2)n1C (configuration not stated)	1	-0.17
O=C(CSc1nc(-c2ccccc2F)nc2cc(=O)[nH]n12)N1CCCC1	-0.95	x
CCn1c(SCc2nc(-c3ccc(Br)cc3)no2)nnc1-c1ccco1	0.27	0.99
CCOCCCN1C(=O)c2cc3occc3n2CC1(C)C(=O)NC1CCC(C)CC1 (configuration not stated)	3.8	x
O=C(CN1C(=O)CSc2ccc(S(=O)(=O)N3CCCCC3)cc21)NC1CCCc2ccccc21 (configuration not stated)	0.3	x
O=S(=O)(c1cnc[nH]1)N1CCC(N2CCOCC2)CC1	1.3	x
C=CCOC(=O)C1=C(C)Nc2nc(SCCC)[nH]c(=O)c2C1c1ccc(OC)cc1 (configuration not stated)	0.07	-1.2
CCc1cc(N2CCN(c3cc(C)ccc3C)CC2)n2ncnc2n1	1.4	-0.56

Complete entries as entered above.
Record of CCOCCCN1C(=O)c2cc3occc3n2CC1(C)C(=O)NC1CCC(C)CC1 (configuration not stated) : HIV TAR-Tat = 3.8; CDC25B-CDK2 inh = x
Record of C=CCOC(=O)C1=C(C)Nc2nc(SCCC)[nH]c(=O)c2C1c1ccc(OC)cc1 (configuration not stated) : HIV TAR-Tat = 0.07; CDC25B-CDK2 inh = -1.2

(cont.)
SMILES	HIV TAR-Tat	CDC25B-CDK2 inh
CN(C)CCN(C(=O)C1=COCCO1)c1nc2c(F)cccc2s1	2.5	x
CCOC(=O)N/N=C/c1cccs1	x	-1.1
O=C(CCc1nnc2ccc(NCc3ccco3)nn12)Nc1cccnc1	0.77	x
CSc1nn(CC(=O)Nc2ccccc2Cl)c(N)c1S(=O)(=O)c1ccccc1	-0.64	x
CC(C)NC(=O)C1=Cc2ccccc2OC1	0.74	x
COc1ccc(-c2cc(C)no2)cc1S(=O)(=O)NCCSCc1ccco1	0.43	x
CCC(C)NC(=O)Cn1nc2c3scc(-c4ccc(C)cc4)c3ncn2c1=O (configuration not stated)	0.21	x
COc1ccc(-c2nnc(SCc3ccc(C)cc3)o2)c(OC)c1	0.79	-0.7
COc1cc(O)c2c(=O)cc(-c3ccccc3)oc2c1	x	-1.1
CC(C)(C)CC(=O)Nc1nnc2n1CCS2	0.96	x
COc1ccc(-c2cc(C(F)(F)F)n3nc(C(=O)O)cc3n2)cc1OC	1.3	-0.8
CCOC(=O)N1CCN(S(=O)(=O)c2ccc3c(c2)CCN3C(=O)C2CC2)CC1	2.3	x
N/C(CC(=O)N1CCCC1)=N\O	x	-2.5
CCCCCn1c(=S)[nH]c2ncccc2c1=O	x	1
Cc1ccc(CNCCCSc2nnnn2-c2ccccc2)s1	2.1	-0.7
CC1(C)CC(=O)c2c(oc3ccc(NS(=O)(=O)c4ccc(Cl)cc4)cc23)C1	-0.55	1.1
O=C(COc1ccccc1Cl)Nc1ccccc1OCc1cc(=O)n2ccccc2n1	1.1	x
CCn1c(=O)c2cc(C(=O)N(C)Cc3ccco3)sc2c2ccccc21	1.3	-0.68
COC(=O)Cn1c(SCCOc2ccc(OC)cc2)nc2ccccc21	1.7	-1.8
Cc1cc2nnc(SC(C)C(=O)Nc3ccccc3)n2c2ccccc12 (configuration not stated)	0.79	-0.63
CCCn1c(=O)c2c(nc3n2CCN3c2ccc(CC)cc2)n(C)c1=O	2.3	x
O=C(COCc1cc(-c2cccs2)on1)NCc1ccc2c(c1)OCO2	1.3	x
O=S(=O)(NCCc1csc(-c2ccc(Cl)cc2)n1)c1ccc(F)cc1F	0.8	x
N#C/C(=N\Nc1ccccc1Cl)S(=O)(=O)c1ccc(Cl)cc1	x	0.37
CC(NC(=O)C1=Cc2cc(Br)ccc2OC1)c1ccc2c(c1)OCCO2 (configuration not stated)	1.3	x
O=C(CCCn1c(=O)c2cccn2c2ccccc21)NCC1CCCO1 (configuration not stated)	1.8	x
CCS(=O)(=O)N1CCC2(CC1)OC(=O)C(C)=C2C(=O)NCCCN1CCCC1=O	0.07	x
Cn1cnc([N+](=O)[O-])c1N1CCOCC1	x	-3.1
CC(CCc1ccco1)NC(=O)Cn1ncc2c1-c1ccccc1OC2 (configuration not stated)	-0.26	-0.68
CCOc1ccc(Cl)cc1CNCCSc1nnnn1C	-0.06	0.54

The listing continues:
SMILES	HIV TAR-Tat	CDC25B-CDK2 inh
Cn1cc(NC(=O)N2CCCCC2c2cccnc2)c2ccccc2c1=O (configuration not stated)	1.7	x
O=C(Cn1ncc2c3ccccc3n(Cc3cccc(Cl)c3)c2c1=O)N1CCCC1	-0.49	-1.4
CCOC(=O)c1cn[nH]c1S(=O)(=O)N1CCC(N2CCCCC2)CC1	-0.03	x
NC(=O)CSc1nc2ccccc2c(=O)[nH]1	2	-0.94
Clc1ccc(-c2nnc(-c3ccccc3)o2)cc1	-1.1	-2.7
c1cncc(-c2nc3c4ccccc4nc(NC4CCCCC4)n3n2)c1	-0.15	-0.61
C=CCNc1nn2c(=O)c3ccccc3nc2s1	0.81	x
Cc1ccc2nc(CCc3nc4ccc(C)cc4[nH]3)[nH]c2c1	1.6	0.02
CNCc1nc(-c2ccccc2)oc1C	1.9	x
Cc1cc(C)nc(SCC2=NN(c3nc(C)cc(C)n3)C(=O)C2)n1	1.3	-2.8
COc1cc2c(cc1OC)C1CC(=O)C(CC(C)C)CN1CC2 (configuration not stated)	1.7	-0.76
CCCc1nnc(NC(CC)OC(=O)c2cc(C)nc3ccccc23)s1 (configuration not stated)	1.9	-1.2
Cc1onc(-c2c(F)cccc2Cl)c1C(=O)N=C(N)N1CCCC1	x	-3.7
O=C(CN1C(=O)CSc2ccc(S(=O)(=O)N3CCOCC3)cc21)NC1CCCC1	1.4	x
C=CCN1C=C(OC(=O)c2ccccc2OC(C)=O)c2ccccc2S1(=O)=O	0.19	-0.34
O=C(CN1C(=O)COc2ccc(S(=O)(=O)N3CCCCC3)cc21)N1CCN(C2CCCC2)CC1	0.53	x
O=c1c2c(-c3ccccc3)csc2ncn1CCN1CCOCC1	-1	-0.19
Cc1ccc(C(CNC(=O)c2ccco2)N2CCC(C)CC2)o1 (configuration not stated)	1	-0.17
O=C(Nc1nnc(SCc2nc3ccccc3[nH]c2=O)s1)C1CC1	-1.4	x
CC1CCC(NC(=O)CCCCn2c(=O)[nH]c3ccsc3c2=O)CC1 (configuration not stated)	-1.1	-0.41
Cc1ccc(NC(=O)NCC2CCN(C3CCCC3)C2)c(C)c1 (configuration not stated)	3	-2.3
Cc1c(NC(=O)C(C)N2C(=O)C3C4C=CC(C4)C3C2=O)c(=O)n(-c2ccccc2)n1C (configuration not stated)	x	-0.73
COc1ccc(CNC(=O)c2c(O)c3cccc4c3n(c2=O)CCC4)cc1	x	-1.6
CCCc1nc(NC)nc(-c2ccccc2O)n1	0.1	-3.7
O=C(Nc1ccccn1)c1cnn(-c2ccccc2)c1-n1cccc1	0.14	x
O=C(c1noc2c1CCCCC2)N1CCN(c2ccc(F)cc2)CC1	1.2	1.1
COc1ccc(-c2onc(C)c2C)cc1S(=O)(=O)N1CCC(N2CCCCC2)CC1	-0.06	x
O=c1[nH]c(CS(=O)(=O)c2ccccc2)nc2sc3c(c12)CCCC3	-0.46	-1.3
CCOC(=O)Nc1sc(C)c(CC)c1C(N)=O	-0.18	-1.7
CC1=C(c2ccccc2)SC2=NCCN21	3.2	-2.5

Look-ups from the results shown:
COc1cc2c(cc1OC)C1CC(=O)C(CC(C)C)CN1CC2 (configuration not stated) in HIV TAR-Tat shows 1.7
O=C(CN1C(=O)COc2ccc(S(=O)(=O)N3CCCCC3)cc21)N1CCN(C2CCCC2)CC1 in HIV TAR-Tat shows 0.53
Cc1c(NC(=O)C(C)N2C(=O)C3C4C=CC(C4)C3C2=O)c(=O)n(-c2ccccc2)n1C (configuration not stated) in CDC25B-CDK2 inh shows -0.73
COc1ccc(CNC(=O)c2c(O)c3cccc4c3n(c2=O)CCC4)cc1 in CDC25B-CDK2 inh shows -1.6
Cc1ccc(C(CNC(=O)c2ccco2)N2CCC(C)CC2)o1 (configuration not stated) in CDC25B-CDK2 inh shows -0.17
CCOC(=O)Nc1sc(C)c(CC)c1C(N)=O in HIV TAR-Tat shows -0.18
CNCc1nc(-c2ccccc2)oc1C in HIV TAR-Tat shows 1.9

The list goes on:
The line under a structure holds: HIV TAR-Tat, CDC25B-CDK2 inh
O=C(NCCCN1CCOCC1)c1cc(-c2ccco2)on1
 : -0.21, -3.5
Cc1ccc(C(=O)N(Cc2sccc2C)C2CCS(=O)(=O)C2)cc1 (configuration not stated)
 : 1.3, -2.7
CC(C)CCNC(=O)C1CCCN1c1nnc(N2CCCCC2=O)s1 (configuration not stated)
 : 1.5, x
CCCOc1ccc(-c2nnc3n2N=C(c2ccccc2)CS3)cc1
 : 0.76, -1.1
Nc1c(C(=O)Nc2ccc(F)cc2)sc2nc(-c3ccncc3)ccc12
 : 11*, -0.18
O=C1C(c2ccncc2)=C(O)c2ccccc21
 : x, -1.4
O=C(CN1CCN(Cc2ccc(F)cc2Cl)C1=O)N1CCOCC1
 : 1.2, -1.9
CC1(C)c2ccccc2-n2c1cc1oc(=O)cc(O)c1c2=O
 : x, -0.97
CS(=O)(=O)Nc1nc2ccc(NC(=O)CCc3nc4ccccc4[nH]3)cc2s1
 : -2, x
Fc1ccccc1CN1CCN(CCCc2ccccc2)CC1
 : 0.35, -0.69
N/C(=N\OC(=O)Nc1ccccc1)c1ccc(Oc2c(Cl)cncc2Cl)cc1
 : x, -2.2
Cc1ccc(C)c2[nH]c(=O)c(CCNC(=O)C3CC3)cc12
 : x, -1.4
COc1cc(C2c3c(oc4cc(C)c(C)cc4c3=O)C(=O)N2c2ccc(C)cn2)ccc1O (configuration not stated)
 : 0.98, -1
CCc1nc2nc(C)c(NS(=O)(=O)c3ccc(OC)c(OC)c3)c(=O)n2[nH]1
 : 1.2, -1.5
O=C1N(Cc2cccc(F)c2)c2ccccc2S(=O)(=O)N1c1cc(F)ccc1F
 : 1.6, x
O=C(NC1CCCCC1)c1ccc(N2CCSc3ncccc32)s1
 : -1.8, x
CCOC(=O)C1=C(C)NC2=C(C(=O)CCC2)C1c1ccc(OC)c(OC)c1 (configuration not stated)
 : 2.5, -1.6
COc1ccc(OCCn2cc(C(=O)c3ccco3)c3ccccc32)cc1
 : 1.1, 1.1
CS(=O)(=O)c1ccc2nc(NC(=O)Nc3cc(F)ccc3F)sc2c1
 : 1.1, -0.7
CCCCOC(=O)C1=C(C)NC2=C(C(=O)CCC2)C1c1cc(OC)c(OC)cc1Br (configuration not stated)
 : 0.17, -0.63

(continued)
The line under a structure holds: HIV TAR-Tat, CDC25B-CDK2 inh
Cc1ccc(-c2cc(O)cc3sc(=O)oc23)cc1
 : 1.7, -2
CC(C)CN(CC(C)C)C(=O)c1cc(S(=O)(=O)N2CCCCC2)c[nH]1
 : 3.1, x
Cc1c([N+](=O)[O-])c(C/C=N/O)nn1C
 : x, -0.84
COc1ccc(Oc2cccc(Cl)c2CNC(=O)c2ccccc2C(=O)O)cc1
 : x, -2.3
O=C(Nc1ccc(F)cc1F)NC1COc2ccccc2C1 (configuration not stated)
 : 0.39, x
